Yeast UUG start: modulators of start codon recognition fidelity in yeast; S. cerevisiae UUG-firefly luciferase reporter, luminescence/redox ratio; activity score, % at 18.7 µM; hit rate 0.13% among 350,000; AID 602363;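 active = replicate mean at a twofold rise or more, about +100% in these data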;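 also: firefly luciferase made from a UUG start codon reports start codon fidelity; reporter light over untreated wells divided by growth signal over untreated wells; some hits fall short of that in this replicate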
Env fusion inh: HIV envelope-mediated fusion inhibition; hit rate 1.1% among 360,000; inhibition, % at 12.3 µM; HeLa-JRFL Env/CEM21 cell fusion, luciferase;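 active = mean replicate inhibition score of at least 50 and every replicate individually at or above 50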;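 also: 0% = plate neutral controls and 100% = maraviroc near 300 nM; one replicate is shown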
* = called active by the depositor; [ ] = dose if it differs, or a comment.

SMILES	Yeast UUG start	Env fusion inh
COc1cccc(NC(=O)N[C@H]2CC[C@H](CC(=O)Nc3ccccc3)O[C@H]2CO)c1	-13.9	-2.4[16.7 µM]
N#C[C@H]1[C@@H](c2ccc(C#Cc3ccc(F)cc3)cc2)[C@H](CO)N1C(=O)C1CCC1	16.2	26.0[16.7 µM]
Cc1noc(C)c1NC(=O)N(C)C[C@@H]1Oc2ncc(C#CC3CCCC3)cc2C(=O)N([C@@H](C)CO)C[C@H]1C	4.4	-4.8[16.7 µM]
CO[C@@H]1CN(C)C(=O)c2cc(NC(C)=O)ccc2OC[C@@H](C)N(C(=O)NC2CCCCC2)C[C@H]1C	-11.1	27.6[16.7 µM]
C[C@@H]1CCCCO[C@H](CN(C)S(C)(=O)=O)[C@H](C)CN([C@@H](C)CO)C(=O)c2cc(NS(C)(=O)=O)ccc2O1	-19.9	0.5[16.7 µM]
Cc1noc(C)c1NC(=O)N(C)C[C@H]1Oc2ncc(C#CC3CCCCC3)cc2C(=O)N([C@H](C)CO)C[C@@H]1C	12.4*	3.4[16.7 µM]
COc1ccc(NC(=O)Nc2cccc3c2O[C@H](CN(C)S(=O)(=O)c2cccs2)[C@H](C)CN([C@@H](C)CO)C3=O)cc1	14.8	-43.0[16.7 µM]
C[C@@H]1CN([C@@H](C)CO)C(=O)c2cc(NC(=O)Nc3ccc4c(c3)OCO4)ccc2O[C@@H](C)CCCCO[C@@H]1CN(C)C(=O)Nc1ccc2c(c1)OCO2	11.1	-16.5[16.7 µM]
CNC[C@@H]1Oc2ccc(NC(=O)Nc3c(C)noc3C)cc2C(=O)N([C@@H](C)CO)C[C@H]1C	-31.9	-8.9[16.7 µM]
C[C@@H]1CN([C@@H](C)CO)C(=O)c2cc(-c3cccc(C#N)c3)cnc2O[C@H]1CN(C)Cc1ccncc1	-1.1	-10.1[16.7 µM]
C[C@@H]1CN([C@H](C)CO)C(=O)Cc2cc(NC(=O)Cc3ccccc3)ccc2O[C@H]1CN(C)S(=O)(=O)c1cccs1	15.0	25.8[16.7 µM]
C[C@H]1CN([C@@H](C)CO)C(=O)c2cc(NS(=O)(=O)c3ccccc3)ccc2O[C@H]1CN(C)C(=O)Nc1ccc2c(c1)OCO2	3.1	-2.1[16.7 µM]
C[C@H]1CN([C@@H](C)CO)C(=O)c2cc(-c3ccccc3F)cnc2O[C@@H]1CN(C)Cc1cccc(C(=O)O)c1	1.3	-31.5[16.7 µM]
CC(C)NC(=O)N(C)C[C@H]1Oc2c(NS(=O)(=O)c3ccc(Cl)cc3)cccc2C(=O)N([C@@H](C)CO)C[C@@H]1C	28.5	19.8[16.7 µM]
CCCC#Cc1cnc2c(c1)C(=O)N([C@H](C)CO)C[C@H](C)[C@H](CN(C)C(=O)C1CC1)O2	4.1	-6.6[16.7 µM]
C/C=C/c1ccc2c(c1)O[C@@H](CN(C)Cc1ccccn1)[C@H](C)CN([C@@H](C)CO)S2(=O)=O	-1.6	1.8[16.7 µM]
C[C@H]1CN([C@@H](C)CO)C(=O)c2cccc(NS(=O)(=O)c3cn(C)cn3)c2O[C@H]1CN(C)CC1CC1	-0.3	-9.2[16.7 µM]
COCC(=O)N(C)C[C@@H]1Oc2ncc(C#Cc3ccncc3)cc2C(=O)N([C@H](C)CO)C[C@H]1C	-0.5	-10.0[16.7 µM]
COc1ccc(NC(=O)Nc2ccc3c(c2)C(=O)N([C@H](C)CO)C[C@@H](C)[C@H](CN(C)C(=O)NC(C)C)O3)cc1	0.8	9.6[16.7 µM]
CNC(=O)C[C@H]1CC[C@H]2[C@@H](COc3ccc(NC(=O)c4ccccc4OC)cc3C(=O)N2C)O1	-1.4	2.2[16.7 µM]
C/C=C/c1ccc2c(c1)O[C@H](CN(C)Cc1ccc(F)cc1)[C@H](C)CN([C@@H](C)CO)S2(=O)=O	-3.0	20.2[16.7 µM]
C[C@@H]1CN([C@@H](C)CO)C(=O)c2cc(NC(=O)Cc3ccccc3)ccc2O[C@@H](C)CCCCO[C@H]1CN(C)C(=O)Cc1ccccc1	2.8	-8.7[16.7 µM]
Cc1ccc(S(=O)(=O)Nc2ccc3c(c2)CC(=O)N([C@H](C)CO)C[C@H](C)[C@@H](CN(C)C(=O)Nc2c(C)noc2C)O3)cc1	9.2	-57.3[16.7 µM]
C[C@@H]1CCCCO[C@H](CN(C)C)[C@H](C)CN([C@H](C)CO)C(=O)c2cc(NS(C)(=O)=O)ccc2O1	-0.8	9.1[16.7 µM]
COc1cc2c(cc1OC)CN(C(=O)[C@@H]1[C@H]3C(=O)O[C@H](c4ccccc4)[C@H](c4ccccc4)N3[C@H](c3ccc(O)cc3)[C@@]13C(=O)Nc1ccc(C#CCCO)cc13)CC2	-3.2	-202.7[16.7 µM]
COc1ccc(NC(=O)N(C)C[C@@H]2Oc3ccc(NC(=O)NC4CCCCC4)cc3CC(=O)N([C@@H](C)CO)C[C@H]2C)cc1	14.7	-17.1[16.7 µM]
C[C@@H]1CN([C@H](C)CO)C(=O)c2cc(NC(=O)CCCN(C)C)ccc2O[C@@H](C)CCCCO[C@@H]1CN(C)S(=O)(=O)c1cn(C)cn1	-17.1	-15.1[16.7 µM]
COc1ccc(CN(C)C[C@@H]2Oc3ccc(NC(=O)Nc4ccc5c(c4)OCO5)cc3CC(=O)N([C@H](C)CO)C[C@H]2C)cc1	1.8	0.9[16.7 µM]
COc1ccc(NC(=O)Nc2ccc3c(c2)CC(=O)N([C@H](C)CO)C[C@@H](C)[C@H](CN(C)C(=O)Nc2ccc4c(c2)OCO4)O3)cc1	1.3	19.0[16.7 µM]
O=C(N[C@@H]1CC[C@H](CC(=O)N2CCCCC2)O[C@H]1CO)c1ccc2c(c1)OCO2	-11.1	16.5[16.7 µM]

Record cards (already shown). Order of values: Yeast UUG start | Env fusion inh
COc1ccc(NC(=O)N(C)C[C@@H]2Oc3ccc(NC(=O)NC4CCCCC4)cc3CC(=O)N([C@@H](C)CO)C[C@H]2C)cc1 in the list: 14.7 | -17.1[16.7 µM]
C[C@@H]1CN([C@H](C)CO)C(=O)c2cc(NC(=O)CCCN(C)C)ccc2O[C@@H](C)CCCCO[C@@H]1CN(C)S(=O)(=O)c1cn(C)cn1 in the list: -17.1 | -15.1[16.7 µM]

(more compounds)
SMILES	Yeast UUG start	Env fusion inh
C[C@@H]1CN([C@@H](C)CO)C(=O)c2cccc(NC(=O)Nc3ccc(C(F)(F)F)cc3)c2O[C@@H]1CN(C)C(=O)Nc1ccc(C(F)(F)F)cc1	-8.5	30.0[16.7 µM]
O=C(Nc1ccc(Cl)cc1)N[C@H]1CC[C@@H](CCn2cc(C3(O)CCCC3)nn2)O[C@@H]1CO	-6.4	-5.4[16.7 µM]
C[C@@H]1CCCCO[C@@H](CN(C)S(=O)(=O)c2cccs2)[C@@H](C)CN([C@H](C)CO)C(=O)c2cc(NC(=O)CCCN(C)C)ccc2O1	-3.8	13.6[16.7 µM]
C[C@@H]1CCCCO[C@@H](CN(C)Cc2ccc(Cl)c(Cl)c2)[C@H](C)CN([C@H](C)CO)C(=O)c2cc(NS(=O)(=O)c3cn(C)cn3)ccc2O1	2.0	3.0[16.7 µM]
Cc1noc(C)c1NC(=O)Nc1ccc2c(c1)C(=O)N([C@H](C)CO)C[C@H](C)[C@@H](CN(C)C(=O)Nc1ccc(F)cc1)OCCCC[C@H](C)O2	22.8	12.6[16.7 µM]
C[C@@H]1CN([C@@H](C)CO)C(=O)c2cc(NC(=O)Cc3ccccc3)ccc2O[C@@H](C)CCCCO[C@@H]1CN(C)C(=O)C1CCCCC1	14.2	-34.9[16.7 µM]
Cc1cc(C(=O)Nc2cccc3c2O[C@H](CN(C)C(=O)Nc2ccc(C(F)(F)F)cc2)[C@@H](C)CN([C@H](C)CO)C3=O)n(C)n1	-2.4	-7.0[16.7 µM]
CN(C)C(=O)C[C@@H]1CC[C@@H](NC(=O)Nc2cccc(F)c2)[C@H](CO)O1	-12.3	11.3[16.7 µM]
C[C@@H]1CN([C@H](C)CO)C(=O)Cc2cc(NC(=O)CCN3CCOCC3)ccc2O[C@H]1CN(C)S(=O)(=O)c1ccc(Cl)cc1	5.5	-13.3[16.7 µM]
C=CCN1C(=O)[C@]2(O[C@H](CCO)[C@@H]([Si](C)(C)c3ccc(OC)cc3)[C@@H]2C)c2cc(NC(=O)[C@H](C)O)ccc21	8.7	-21.4[16.7 µM]
CO[C@@H]1CN(C)C(=O)c2ccc(NC(=O)c3ccccc3)cc2OC[C@@H](C)N(C)C[C@@H]1C	-4.4	-4.1[16.7 µM]
C[C@@H]1CN([C@H](C)CO)S(=O)(=O)c2ccc(C#Cc3ccncc3)cc2O[C@@H]1CN(C)S(=O)(=O)c1ccc(F)cc1	-15.0	-13.2[16.7 µM]
CC(C)C#Cc1ccc2c(c1)O[C@@H](CN(C)C(=O)C1CC1)[C@@H](C)CN([C@@H](C)CO)S2(=O)=O	5.6	0.7[16.7 µM]
COC(=O)C[C@H]1CC[C@H]2[C@H](COc3ccc(NC(=O)c4ccccc4)cc3C(=O)N2C)O1	2.9	5.8[16.7 µM]
COCC(=O)N(C)C[C@@H]1Oc2cc(-c3ccc(OC)cc3)ccc2S(=O)(=O)N([C@@H](C)CO)C[C@@H]1C	14.7	0.2[16.7 µM]
C[C@H]1CN([C@@H](C)CO)C(=O)c2cc(NC(=O)Nc3cccc4ccccc34)ccc2O[C@H]1CN(C)S(=O)(=O)c1ccccc1	0.9	17.3[16.7 µM]
C[C@@H]1CN([C@H](C)CO)C(=O)c2cc(/C=C/c3ccccc3)cnc2O[C@H]1CN(C)Cc1ccc2c(c1)OCO2	-1.9	21.3[16.7 µM]
C[C@H]1CN([C@@H](C)CO)C(=O)c2cc(-c3ccc(F)cc3)cnc2O[C@@H]1CN(C)C(=O)Cc1ccccc1	-2.8	35.5[16.7 µM]
C[C@@H]1CCCCO[C@@H](CN(C)S(=O)(=O)c2cn(C)cn2)[C@@H](C)CN([C@H](C)CO)C(=O)c2cc(NS(=O)(=O)c3ccc(Cl)cc3)ccc2O1	14.5	7.0[16.7 µM]
C[C@@H]1CN([C@H](C)CO)S(=O)(=O)c2ccc(-c3ccccc3)cc2O[C@H]1CN(C)S(C)(=O)=O	6.4	20.5[16.7 µM]
C[C@@H]1CN([C@H](C)CO)C(=O)Cc2cc(NS(=O)(=O)c3ccc(F)cc3)ccc2O[C@H]1CN(C)Cc1ccc(C(F)(F)F)cc1	17.0	2.0[16.7 µM]
C[C@@H]1CCCCO[C@@H](CN(C)C(=O)Cc2ccccc2)[C@@H](C)CN([C@@H](C)CO)C(=O)c2cc(NC(=O)Nc3ccc(F)cc3)ccc2O1	5.2	-8.9[16.7 µM]

A draw from above in order of length of the SMILES, largest number first.
SMILES	Yeast UUG start	Env fusion inh
C[C@@H]1CCCCO[C@@H](CN(C)S(=O)(=O)c2cn(C)cn2)[C@@H](C)CN([C@H](C)CO)C(=O)c2cc(NS(=O)(=O)c3ccc(Cl)cc3)ccc2O1	14.5	7.0[16.7 µM]
C[C@@H]1CCCCO[C@@H](CN(C)Cc2ccc(Cl)c(Cl)c2)[C@H](C)CN([C@H](C)CO)C(=O)c2cc(NS(=O)(=O)c3cn(C)cn3)ccc2O1	2.0	3.0[16.7 µM]
Cc1noc(C)c1NC(=O)Nc1ccc2c(c1)C(=O)N([C@H](C)CO)C[C@H](C)[C@@H](CN(C)C(=O)Nc1ccc(F)cc1)OCCCC[C@H](C)O2	22.8	12.6[16.7 µM]
C[C@@H]1CCCCO[C@@H](CN(C)C(=O)Cc2ccccc2)[C@@H](C)CN([C@@H](C)CO)C(=O)c2cc(NC(=O)Nc3ccc(F)cc3)ccc2O1	5.2	-8.9[16.7 µM]
C[C@@H]1CN([C@@H](C)CO)C(=O)c2cc(NC(=O)Cc3ccccc3)ccc2O[C@@H](C)CCCCO[C@@H]1CN(C)C(=O)C1CCCCC1	14.2	-34.9[16.7 µM]
Cc1cc(C(=O)Nc2cccc3c2O[C@H](CN(C)C(=O)Nc2ccc(C(F)(F)F)cc2)[C@@H](C)CN([C@H](C)CO)C3=O)n(C)n1	-2.4	-7.0[16.7 µM]
C[C@@H]1CN([C@H](C)CO)C(=O)Cc2cc(NS(=O)(=O)c3ccc(F)cc3)ccc2O[C@H]1CN(C)Cc1ccc(C(F)(F)F)cc1	17.0	2.0[16.7 µM]
C[C@@H]1CN([C@H](C)CO)C(=O)Cc2cc(NC(=O)CCN3CCOCC3)ccc2O[C@H]1CN(C)S(=O)(=O)c1ccc(Cl)cc1	5.5	-13.3[16.7 µM]
C[C@@H]1CN([C@H](C)CO)S(=O)(=O)c2ccc(C#Cc3ccncc3)cc2O[C@@H]1CN(C)S(=O)(=O)c1ccc(F)cc1	-15.0	-13.2[16.7 µM]
C[C@@H]1CN([C@H](C)CO)C(=O)c2cc(/C=C/c3ccccc3)cnc2O[C@H]1CN(C)Cc1ccc2c(c1)OCO2	-1.9	21.3[16.7 µM]
C[C@H]1CN([C@@H](C)CO)C(=O)c2cc(-c3ccc(F)cc3)cnc2O[C@@H]1CN(C)C(=O)Cc1ccccc1	-2.8	35.5[16.7 µM]
CC(C)C#Cc1ccc2c(c1)O[C@@H](CN(C)C(=O)C1CC1)[C@@H](C)CN([C@@H](C)CO)S2(=O)=O	5.6	0.7[16.7 µM]
C[C@@H]1CN([C@H](C)CO)S(=O)(=O)c2ccc(-c3ccccc3)cc2O[C@H]1CN(C)S(C)(=O)=O	6.4	20.5[16.7 µM]
CO[C@@H]1CN(C)C(=O)c2ccc(NC(=O)c3ccccc3)cc2OC[C@@H](C)N(C)C[C@@H]1C	-4.4	-4.1[16.7 µM]
COC(=O)C[C@H]1CC[C@H]2[C@H](COc3ccc(NC(=O)c4ccccc4)cc3C(=O)N2C)O1	2.9	5.8[16.7 µM]
CN(C)C(=O)C[C@@H]1CC[C@@H](NC(=O)Nc2cccc(F)c2)[C@H](CO)O1	-12.3	11.3[16.7 µM]

An excerpt, so the mix of outcomes need not match the whole.
